Vaccinia Venus = inhibitors of vaccinia virus (Venus reporter). 330,000 compounds, 0.46% hits. Potency, µM (top dose mostly 36.5 µM), for inactives: top-dose activity change, negative = inhibition, usual class: inhibitors. Vaccinia virus Venus reporter expression, fluorescence; active means well fitted inhibition curve with a large enough effect; inconclusive means small, poorly fitted or top-dose-only effect; inactive means no such curve, though single readings can be large or run the other way; tested in A549 cells; further: nearly all actives have a fitted effect of over 30% in size; inactives centre near -10
Vaccinia mCherry = inhibitors of vaccinia virus infection (mCherry reporter signal) | Vaccinia virus mCherry reporter infection, fluorescence; about a quarter of the inactives have no number | Potency, µM (top dose mostly 36.5 µM), without a hit: at the highest dose activity change, negative = inhibition, hits mostly inhibitors | 310,000 compounds, 0.63% hits; active = well fitted inhibition curve with a large enough effect; inconclusive = small, poorly fitted or top-dose-only effect; inactive = no such curve, though single readings can be large or run the other way; tested in A549 cells; further: nearly all actives have a fitted effect of over 35% in size; inactives centre near -10
An asterisk follows results filed as active; i = inactive; ? = inconclusive; · = not tested or not shown; & = joins results of further samples; [ ] = remark or other dose. On the % scale 0 is the no-effect control and ±100 the full control effect; potency means the concentration at half of the fitted maximal effect.

SMILES	Vaccinia Venus	Vaccinia mCherry
CC1(CCc2ccccc2)NC(=O)N(Cc2nnc(-c3ccccc3Br)o2)C1=O (centres undefined)	-7%	·
CC(=O)Nc1ccc(N/C=C/C(=O)c2ccco2)cc1	?	·
COc1ccc(C2=NOC(C(=O)Nc3c(C)n(C)n(-c4ccccc4)c3=O)C2)cc1OC (centres undefined)	-3%	-25%
CCC(C(=O)Oc1c(C(C)C)cccc1C(C)C)c1ccccc1 (centres undefined)	-14%	-29%
COC(=O)C1CCN(C(=O)COC(=O)c2cc(-c3cccs3)nn2-c2ccccc2)CC1	-9%	-14%
CC1(C)CC(=O)C=C(c2ccccc2-c2ccc3cc[nH]c3c2)C1=O	-5%	0%
NC(=O)CNC(=O)[C@@H]1CC2(CC(c3ccc(Cl)cc3)=NO2)CN1C(=O)c1ccccc1 (some centres undefined)	-10%	i
Cc1ccc(C(=O)NCc2ccncc2)cc1S(=O)(=O)N1CCCCC1	-13%	-4%
CCOC(=O)c1c(NC(=O)CSc2cn(CCNC(=O)c3c(F)cccc3F)c3ccccc23)sc2c1CCC2	-6%	-15%
COc1ccc(C(=O)Nc2cccc(OC(=O)c3ccc(C)c(C)c3)c2)cc1	?	·
COCCn1c(-c2ccccc2)cc(C(=O)O)c1C	-12%	-16%
Cc1ccc(C(C)(c2ccc(N)cc2)c2ccc(N)cc2)cc1	9%	?
CCCCNC(=O)c1c(-c2ccccc2)c(-c2ccccc2)nn(C)c1=O	-5%	4%
Cc1ccc(-c2nc(C)c(CCNC(=O)c3ccco3)s2)cc1	-2%	-7%
CCOC(=O)c1nnc2c(-c3ccc(Cl)cc3)c(C)nn2c1C	-11%	-11%
Cc1cc(C(=O)Nc2cccc(/C=C/C(=O)O)c2)c(C)o1	-5%	-11%
Cc1cc(Cl)ccc1C(=O)C1CCCN(C(=O)c2ccsc2)C1 (centres undefined)	-24%	-17%
CCN(CC)S(=O)(=O)c1ccc(NC(=O)c2ccc(Cl)nc2)cc1	-15%	-14%
COc1cc(Cl)c(S(=O)(=O)NCCc2c(C)[nH]c3c(C)cccc23)cc1Cl	-15%	-18%
CC(C)c1ccc(CNC(=O)C2CC(=O)N(C3CCCCC3)C2)cc1 (centres undefined)	-6%	i
COc1ccccc1NC(=O)NC1(C(=O)NCC2CCCO2)CCCCC1 (centres undefined)	-7%	?
O=C1C=C(O)CC(c2ccc(Cl)c(Cl)c2)C1 (centres undefined)	-9%	-9%[1.46 µM]
CCCn1c(N)c(N(CCOC)C(=O)c2ccc(C#N)cc2)c(=O)[nH]c1=O	-6%	-14%
COc1ccc(C(=O)CCC(=O)Nc2cc(C)ccc2C)cc1	-12%	-5%
COc1cc(NC(=O)CSc2nnc3ccc(-c4ccncc4)nn23)cc(OC)c1	-10%	-20%
O=C1CSc2ccc(C(=O)NCC(c3ccco3)N3CCCCC3)cc2N1 (centres undefined)	-3%	i
Cc1nnc(SCC(=O)Nc2sc3c(c2C#N)CCCCC3)n1N	-13%	·
CC(=O)Nc1ccc(NC(=O)c2c(C)nc3ccccn23)cc1	-13%	-10%
C=CCNC(=O)NC(=O)COC(=O)/C=C/c1cccc([N+](=O)[O-])c1	-16%	-11%
CN(C(=O)c1ccc(Br)o1)C1CCS(=O)(=O)C1 (centres undefined)	-2%	-12%
Nc1cnc(CNc2ccccc2Cl)cn1	-13%	?
COc1ccc(S(=O)(=O)N2CCCC(C(=O)Nc3ccc(OC)c(OC)c3)C2)cc1 (centres undefined)	-25%	-11%
CC(C)(C)CNc1cc(N2CCCC2)ccc1[N+](=O)[O-]	-12%	i
O=C(NCc1ccccn1)C(=O)NCC1OCCN1S(=O)(=O)c1ccc(F)cc1 (centres undefined)	-20%	i
CCOC(=O)N1CCN(S(=O)(=O)c2cccs2)CC1	-10%	-16%
CCCCCN(C(=O)CCC(=O)OCC(=O)c1ccc(CCC)cc1)c1c(N)n(CCCC)c(=O)[nH]c1=O	-27%	-20%
O=C1c2ccccc2C(c2nnnn2-c2ccc3c(c2)OCCO3)N1CCCN1CCOCC1 (centres undefined)	5%	37%[activator]
CCc1noc(-c2ccc(NC(C)c3ccccc3)c([N+](=O)[O-])c2)n1 (centres undefined)	-8%	-4%
COc1ccccc1C1CC(c2ccco2)=NN1S(C)(=O)=O (centres undefined)	-10%	-4%
COCC(=O)N(Cc1nc2ccccc2c(=O)[nH]1)Cc1cccs1	-12%	-4%

Not a retest: seven of the compounds above.
SMILES	Vaccinia Venus	Vaccinia mCherry
CC(C)(C)CNc1cc(N2CCCC2)ccc1[N+](=O)[O-]	-12%	i
O=C(NCc1ccccn1)C(=O)NCC1OCCN1S(=O)(=O)c1ccc(F)cc1 (centres undefined)	-20%	i
CCOC(=O)N1CCN(S(=O)(=O)c2cccs2)CC1	-10%	-16%
CCCCCN(C(=O)CCC(=O)OCC(=O)c1ccc(CCC)cc1)c1c(N)n(CCCC)c(=O)[nH]c1=O	-27%	-20%
O=C1c2ccccc2C(c2nnnn2-c2ccc3c(c2)OCCO3)N1CCCN1CCOCC1 (centres undefined)	5%	37%[activator]
CCc1noc(-c2ccc(NC(C)c3ccccc3)c([N+](=O)[O-])c2)n1 (centres undefined)	-8%	-4%
COc1ccccc1C1CC(c2ccco2)=NN1S(C)(=O)=O (centres undefined)	-10%	-4%

Other structures:
SMILES	Vaccinia Venus	Vaccinia mCherry
COc1ccc(S(=O)(=O)Nc2cccc3c2O[C@H](CN(C)S(=O)(=O)c2ccc(F)cc2)[C@H](C)CN([C@H](C)CO)C3=O)cc1	-22%	-9%
O=C(c1ccc(F)cc1)n1ccc(-c2cnc(-c3ccccc3)s2)n1	-13%	·
CC1(C)Cc2cccc(OCC(=O)OCC(=O)NCc3ccc(F)cc3)c2O1	-7%	-16%
CNC(=S)NNc1ccccc1[N+](=O)[O-]	-9%	-14%
CCN(CC)c1ccc(NC(=O)c2[nH]c(C)c(C(C)=O)c2C)c(C)c1	-12%	i
C[C@@H]1CC2[C@@H]3CC[C@H]4CC(=O)CC[C@]4(C)C3=CC[C@]2(C)[C@@]1(O)C(=O)CO (some centres undefined)	-7%	-14%
CCN(Cc1ccccc1)C(=O)c1ccc(Cl)cc1[N+](=O)[O-]	-15%	-18%
O=C(Oc1ccc(=O)n(-c2ccccc2)n1)c1ccc(Cl)cc1	-19%	-22%
CCN1C(=O)[C@@H]2[C@@H](c3ccc(-c4ccc5c(c4)OCO5)c(OC)c3)N3CCC[C@@]3(C(=O)OC)[C@@H]2C1=O	-11%	-13%
CCCS(=O)(=O)N1CC(=O)N(c2ccccc2C)C(C)(C(=O)NC2CCCCC2)C1 (centres undefined)	-5%	-11%
CC(=O)C1C(c2ccc([N+](=O)[O-])cc2)c2c(noc2C)CC1(C)O (centres undefined)	-1%	i
COc1ccc(CCn2c(C)cc(C(=O)COC(=O)c3cnc(C)cn3)c2C)cc1	-16%	-14%
COc1ccc(N=C2NN=C(c3c(C)[nH]c4ccccc34)CS2)cc1	-19%	-26%
CCC(C)CN1C(=O)CN(S(C)(=O)=O)CC1(C)C(=O)NC(C)C (centres undefined)	-3%	i
CCOC(=O)c1nn(-c2ccccc2F)c(-c2ccccc2)c1C(=O)c1ccccc1	-19%	·
Cc1cccc(NC(=O)Cn2c(=O)oc3cc(S(=O)(=O)NCc4ccccc4)ccc32)c1	2%	-12%
COc1cc(CC(=O)C(=O)O)oc(=O)c1	3%	-13%
CCOc1ccc(S(=O)(=O)NCCC(=O)N(C)Cc2cccs2)cc1	-12%	-2%
CCOc1ccc(C2C(=O)N(C3CCCCCC3)CC(=O)N2CCc2ccc(OC)c(OC)c2)cc1OC (centres undefined)	-17%	-2%
CC(=O)C(Cc1ccccc1)NC(=O)CN1c2cccc3cccc(c23)S1(=O)=O (centres undefined)	-15%	-11%
O=C(NCc1ccccc1)C1c2ccccc2OCC(=O)N1Cc1ccco1 (centres undefined)	-7%	3%
CCOC(=O)Nc1sc(C)c(C)c1C(=O)OCC	-20%	-14%
CCc1ccc2c(c1)C(O)(CC(=O)c1cccs1)C(=O)N2 (centres undefined)	-10%	-19%
O=C1NC(c2ccccc2)Nc2c1sc(=S)n2-c1ccccc1 (centres undefined)	-6%	-9%
COc1ccc(CCNC(=O)c2cnn(-c3ccc(F)cc3)c2C2CCN(C(=O)OC(C)(C)C)CC2)cc1OC	-7%	-7%
Cc1ccc(C(=O)Nc2nnc(-c3ccncc3)o2)cc1	-11%	-3%
CCN1C(=NCCc2ccc(Br)cc2)N[C@@H](c2ccccc2)[C@H](C(=O)OC)[C@H]1C	-11%	-3%
CCOc1ccccc1CNS(=O)(=O)c1ccc(-c2coc(C)n2)cc1	-4%	-3%
O=C1c2ccccc2C(=O)c2c1ncn2-c1ccccc1	?	?
CCOC(=O)Cn1c(=O)n(-c2ccc(Cl)cc2)c2nc(-c3ccc(Cl)cc3)nc(C(N)=O)c21	-16%	i

Another view of some results above:
| Structure | Vaccinia Venus | Vaccinia mCherry |
| --- | --- | --- |
| O=C1NC(c2ccccc2)Nc2c1sc(=S)n2-c1ccccc1 (centres undefined) | -6% | -9% |
| CCOC(=O)Nc1sc(C)c(C)c1C(=O)OCC | -20% | -14% |
| CCOC(=O)Cn1c(=O)n(-c2ccc(Cl)cc2)c2nc(-c3ccc(Cl)cc3)nc(C(N)=O)c21 | -16% | i |

Profiles as entered above. Screens in order: Vaccinia Venus, Vaccinia mCherry
Shown for Cc1cc(Cl)ccc1C(=O)C1CCCN(C(=O)c2ccsc2)C1 (centres undefined) : -24%, -17%
Shown for C[C@@H]1CC2[C@@H]3CC[C@H]4CC(=O)CC[C@]4(C)C3=CC[C@]2(C)[C@@]1(O)C(=O)CO (some centres undefined) : -7%, -14%
Shown for O=C1c2ccccc2C(=O)c2c1ncn2-c1ccccc1 : ?, ?
Shown for COc1ccccc1C1CC(c2ccco2)=NN1S(C)(=O)=O (centres undefined) : -10%, -4%

Continued.
SMILES	Vaccinia Venus	Vaccinia mCherry
O=C(/C=C/c1ccccc1)NCCc1ccccc1	4%	-4%
O=C(OCn1nnc2ccccc2c1=O)C1CCN(S(=O)(=O)c2cccs2)CC1	-4%	-10%
Fc1ccc(N/N=C/C=C/c2ccccc2)c(F)c1	-12%	-2%
O=C1CC(C(=O)O)NC(=S)N1 (centres undefined)	-3%	i
C/C(=N/N=C(/C)c1cccs1)c1cccs1	-19%	i
O=C(N/N=C/c1c(Cl)[nH]c2ccccc12)c1sc2ccccc2c1Cl	-29%	?
CCc1noc(C)c1C(=O)N(C)CC(=O)Nc1ccccc1Br	-16%	i
O=C(C[n+]1cccc(Br)c1)c1cc(Cl)ccc1Cl	-7%	-12%
O=C(Nc1ccccc1C(=O)O)c1cc(S(=O)(=O)N2CCCCC2)cs1	2%	-22%
COc1ccc(C(=O)N/C(=C\c2ccc(Cl)cc2)C(=O)NCC2CCCO2)cc1 (centres undefined)	-18%	i
CCC(C)(C)c1nnc(NC(=O)C2CCN(C(=O)c3ccco3)CC2)s1	4%	i
O=C(NCc1cccs1)c1ccc(Cn2c(SCc3ccc(F)cc3)nc3cccnc32)cc1	-22%	-28%
C=CCn1c(SCC(=O)Nc2ccc(C(=O)O)cc2)nc2scc(-c3ccccc3)c2c1=O	-7%	-12%
Cc1ccc(C)c(NC(=O)c2ccc3c(c2)CCN3S(C)(=O)=O)c1	-6%&-7%	1%&-7%
COc1oc(-c2ccc(Cl)cc2)nc1C(F)(F)F	1%	-11%
CC(C)CN(C(=O)CCNC(=O)c1ccc(Cl)cc1)C1CCS(=O)(=O)C1 (centres undefined)	-4%	i
Cc1cc(C)c(CC(=O)c2ccccc2)c(C)c1	-6%	-15%
COc1ccc(CC2c3cc(OC)c(OC)cc3CCN2C)cc1OC (centres undefined)	6%	i
CCOc1ccc(C(=O)NCCC(=O)NCCCC(=O)O)cc1	-3%	-11%
CCc1cccc(C)c1NS(=O)(=O)c1ccc(-n2cccn2)cc1	-18%	-18%
O=c1c2cnn(-c3ccccc3)c2ncn1Cc1ccccn1	-19%	·
CCC1CN(CCC(=O)N2CCN(c3ncccn3)CC2)Cc2cc(OC)ccc2O1 (centres undefined)	0%	-15%
O=C(OCc1cccc(C(F)(F)F)c1)c1cc(S(=O)(=O)N2CCOCC2)ccc1F	-21%	-10%
Cc1ccc(CSC2=Nc3ccccc3C3=NC(CC(=O)NCc4cccs4)C(=O)N23)cc1 (centres undefined)	-26%	-25%
Nc1c(-c2cccs2)nc2ccccn12	1%	5%
COc1ccc(S(=O)(=O)N2CCN(C(=O)c3ccc(C)o3)CC2)cc1	-27%	-20%
CCCCNC(=O)Cn1cnc2sc(C)c(S(=O)(=O)N3CCN(c4ccccc4OC)CC3)c2c1=O	-14%&-2%	-6%
CCOC(=O)Cc1csc(NC(=O)C2CCCCC2C(=O)O)n1 (centres undefined)	4%	·
Cc1cccc(C(=O)NC2CC3CCCC(C2)N3S(=O)(=O)c2ccccc2)c1 (centres undefined)	-24%	?
COc1ccc(S(=O)(=O)N/N=C/c2ccc(OCCN3CCOCC3)c(OC)c2)cc1	-4%	-6%
COc1ccc(OCC(=O)NCc2ccc3c(c2)CCN3C(=O)c2ccccc2)cc1	-14%[7.34 µM]	-18%[7.34 µM]
COc1cc(CN(C(=O)c2ccccc2F)C2CCS(=O)(=O)C2)cc(OC)c1OC (centres undefined)	-5%	2%
COc1cc(CNc2ccc3[nH]c(=O)[nH]c3c2)ccc1OCc1ccccc1C	?	?
CCOc1ncccc1C(=O)OCc1ccc(Cl)cc1	-6%	i
Cc1[nH]c2ccccc2c1SCCNC(=O)c1ccc(Br)o1	-17%	-26%
COCCN=C1Sc2nc3ccc(C)cc3cc2CN1Cc1ccco1	-30%	-7%
C[C@]12CC[C@H](O)C[C@@H]1CC[C@@H]1[C@@H]2CC[C@@]2(C)[C@H]1CCC(=O)[C@]21CCCO1	-11%	i
O=S(=O)(NCc1cccnc1)c1ccc(Cl)c2ccccc12	6%	-21%

Screening data (PubChem)
